GLA inh pH 4.5: alpha-galactosidase A (human) inhibition, pH 4.5. 230,000 tested, under 10 active. AID 1467. activity change, negative = inhibition, % at 105 µM. P06280. purified enzyme, 4-MU-alpha-Gal fluorescence, pH 4.5; inconclusive = small, poorly fitted or top-dose-only inhibition, or a rising curve; inactive = flat fitted curve, though single readings scatter; no compound was filed as active;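 note: 0% = full activity with enzyme and -100% = basal without enzyme; dose as in the result columns while the protocol names 77 µM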
Target sequence (P06280 whole entry, looked up): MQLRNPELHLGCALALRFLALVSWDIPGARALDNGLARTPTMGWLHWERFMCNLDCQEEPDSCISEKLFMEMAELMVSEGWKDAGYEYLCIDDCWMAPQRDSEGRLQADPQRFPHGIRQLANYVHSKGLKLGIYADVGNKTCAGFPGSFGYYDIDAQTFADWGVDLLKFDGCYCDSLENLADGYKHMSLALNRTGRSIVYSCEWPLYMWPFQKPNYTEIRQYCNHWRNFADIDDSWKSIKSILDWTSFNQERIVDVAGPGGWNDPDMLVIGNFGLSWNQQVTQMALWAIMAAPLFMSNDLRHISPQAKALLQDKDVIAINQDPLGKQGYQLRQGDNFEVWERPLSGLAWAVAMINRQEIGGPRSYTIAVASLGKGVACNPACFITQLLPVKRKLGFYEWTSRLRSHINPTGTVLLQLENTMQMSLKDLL
Rango complex inh: Rango-importin beta binding inhibition | Q14974 | Rango CFP/YFP FRET sensor + importin beta, 45 min | Potency, µM (highest dose often 92.2 µM), for inactives: top-dose inhibition of complex formation | 340,000 tested, 0.031% active | AID 540263; active = rising FRET ratio curve, often small or poorly fitted; inconclusive = mostly compound fluorescence or quenching in the first reads; inactive = flat curves in all reads;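 note: potency is the fitted concentration of half-maximal effect; 0% = DMSO wells and 100% = buffer wells lacking importin beta; nearly all actives have a fitted effect of over 15% in size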
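FRET biosensor Rango (snurportin 1 IBB between N-terminal EYFP and C-terminal Cerulean), 50 nM in PBS/1 mM DTT/0.02% Tween-20/0.1% BSA, preincubated 5 min RT with compound; 0.125 microM importin beta added, 45 min RT, CFP/YFP FRET ratio read.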
Rango release inh: inhibition of RanGTP-driven Rango-importin beta dissociation; 340,000 tested, 0.071% active; O95149+P62826; Potency, µM (top dose mostly 46.1 µM), without a hit: at the top dose activity change, negative = inhibition; AID 540253; Biochemical FRET Rango-importin beta, RanGTP-induced dissociation; active means falling FRET ratio curve, often poorly fitted, with flat reads before Ran was added; inconclusive means other falling curves, or compound fluorescence or quenching; inactive means flat or rising ratio curve;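 note: potency is the fitted concentration of half-maximal effect; % of control where 0% means no effect; nearly all actives have a fitted effect of over 45% in size; -100% = wells without RanGTP and RCC1; the record marks most hits as doubtful in a second field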
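Rango (0.1 uM)–importin beta (0.25 uM) complex; RanGTP-RCC1 trigger; 45 min RT; CFP/YFP FRET read.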
miR-21 reporter: miR-21 reporter, rising signal; Potency, µM (series often up to 38.3 µM), inactives show at the highest dose reporter change, positive = more light; 340,000 tested, under 10 active; HeLa miR-21 FLuc reporter, luciferase, 48 h; active = well fitted rising curve with a large enough effect; inconclusive = small, poorly fitted or top-dose-only effect; inactive = no such curve, though single readings can be large or run the other way;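 note: % of control where 0% means no effect; miR-21 action dims this reporter so a rising signal means less miR-21 action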
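Using DMEM plus 10% FBS, HeLa miR-21-FLuc cells are incubated with test compounds (final up to about 40uM) for 48 hours; firefly luciferase signal is then imaged following reagent-mediated lysis.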
The depositor's hits bear a star; ? = inconclusive; · = not tested or not shown; & = joins results of further samples.

Each structure is followed by: GLA inh pH 4.5	Rango complex inh	Rango release inh	miR-21 reporter
- O=C(Cc1ccccc1)OCc1ccccc1
 : ·	4.6%	-13.6%	·
- O=C(CCS(=O)(=O)c1ccc(Br)cc1)N1CCC2(CC1)OCCO2
 : 9.4	-0.6%	-1.4%	-20.0%
- OCC1CO1 (configuration not stated)
 : ·	-0.4%	8.5%	·
- O=C(N/N=C/c1c(O)n(CCc2ccccc2)c(=O)[nH]c1=O)c1ccncc1
 : 0.2	?	?	-2.6%
- S=C=Nc1ccccn1
 : -1.0	0.0%	-12.4%	-20.1%
- O=P(/C(=N/O)N1CCOCC1)(N1CCOCC1)N1CCOCC1
 : 0.5	0.5%	0.6%	-9.2%
- CCN1CCN(c2ccc([N+](=O)[O-])cc2C#N)CC1
 : 2.5	-4.4%	-2.5%	1.8%
- COc1ccc(P2(=O)Nc3ccccc3N2)cc1
 : 3.3	?	?	-33.0%
- CC(C)N(C(=O)CCl)c1ccccc1
 : 2.7	1.1%	-3.0%	·
- COC(=O)C1=C(c2ccc(Cl)c(C(F)(F)F)c2)C[C@@H]2CC[C@H]1N2C(=O)NCC1CC1
 : ·	3.4%	0.2%	·
- CSc1nc(C)c(Br)c(N2CC2)n1
 : ·	?	?	·
- C=CCn1c(O)c(/C(C)=N/N2CCN(C)CC2)c(=O)[nH]c1=O
 : 8.2	5.5%	3.1%	2.1%
- C[C@H]1C(=O)O[C@@H]2CCN3CC=C(COC(=O)[C@](C)(O)[C@]1(C)O)[C@H]23
 : ·	-2.2%	0.2%	·
- C/C(=N\N1CCCCCC1)c1c(O)n(-c2ccccc2C)c(=O)[nH]c1=O
 : -9.0	-3.3%	-2.9%	-2.3%
- CCC(=NCc1ccco1)c1c(O)n(-c2ccccc2)c(=O)[nH]c1=O
 : -11.5	2.5%	-1.1%	4.5%
- Cc1ccccc1-n1c(O)c(C=Nc2ccc3c(c2)OCO3)c(=O)[nH]c1=O
 : -1.2	-4.8%	1.9%	-6.2%
- COC(=O)c1nc(-c2ccc3c(n2)C(=O)C(N)=C(OC)C3=O)c(N)c(-c2ccc(OC)c(OC)c2O)c1C
 : ?	?	-15.6%	-0.6%
- COC1=CC(=O)OC(/C=C/c2ccccc2)C1 (configuration not stated)
 : -0.3	1.3%	-9.9%	-26.6%
- CN(C)CCN=Cc1c(O)n(C2CCCCCC2)c(=O)[nH]c1=O
 : 8.9	-2.8%	3.8%	0.6%
- COc1cc2c(cc1O)C[C@H]1NCCc3cc4c(c-2c31)OCO4
 : -11.4	0.3%	-20.2%	19.7%
- CC(C)N1CCC2(CC1)NC(CO)(CO)CO2
 : -13.8	-2.1%	-11.5%	-1.1%
- O=C(c1ccc2c(c1)OCO2)C1CCCN(Cc2ccc(F)c(F)c2)C1 (configuration not stated)
 : ·	-1.5%	-0.7%	2.8%
- CN1C2CCC1C(C(=O)O)C(O)C2 (configuration not stated)
 : ·	0.9%	13.0%	·
- CN(C)C(=O)Oc1ccc2c(c1)O/C(=C\c1cccc([N+](=O)[O-])c1)C2=O
 : ·	-2.6%	1.8%	-2.6%
- Nn1c(CSc2nc3ccccc3o2)nnc1CSc1nc2ccccc2o1
 : 0.8	?	-2.0%	-5.7%
- CCN(CC)C(=O)c1ccc(NC(=O)COC(=O)c2ccc(Cl)s2)cc1
 : ·	-1.5%	-6.5%	·
- COc1ccc2c3c1OC1C(O)C=CC4[C@@H](C2)N(C)CC[C@]314 (some centres not stated)
 : ·	-1.9%	0.1%	·
- CCCNC(=O)N1[C@H]2CC[C@@H]1C(C(=O)OC)=C(c1cccc(Cl)c1)C2
 : ·	0.2%	-4.6%	·
- CCCC(C)C1C(C#N)=C(N)Oc2c1c(=O)oc1ccccc21 (configuration not stated)
 : -1.2	0.4%	-0.4%	-3.7%
- CCc1ccc(-n2c(O)c(/C=N/NC(=O)c3ccncc3)c(=O)[nH]c2=O)cc1
 : -15.7	?	-26.3%	-6.7%
- COc1cccc(CN2CCCC(C(=O)c3ccccc3SC)C2)c1O (configuration not stated)
 : 2.6	-2.2%	-14.7%	4.7%
- CCC(=Nc1ccccc1N)c1c(O)[nH]c(=O)[nH]c1=O
 : ·	?	2.2%	-57.2%
- COc1cccc(Oc2coc3cc(OC(=O)N(C)C)ccc3c2=O)c1
 : ·	-0.3%	?	0.0%
- O=C(O)C1C2CCC(O2)C1C(=O)Nc1ccc(F)c(F)c1 (configuration not stated)
 : ·	-1.6%	-4.9%	-5.9%
- COc1ccc(-n2c(O)c(/C(C)=N/Nc3ccccc3)c(=O)[nH]c2=O)cc1
 : -1.1	-2.8%	-9.0%	13.4%
- Cc1c(C)c2ccc(OCC(=O)N3CCC(C(=O)O)(c4ccccc4)CC3)c(C)c2oc1=O
 : ·	5.9%	-1.9%	0.5%
- CC(C)COc1ccc(Cc2c(O)[nH]c(=S)[nH]c2=O)cc1
 : ·	5.1%	2.1%	-4.7%
- C(=NC1CCCCC1)c1c[nH]c2ccccc12
 : ·	0.8%	5.4%	·
- C[N+](C)(C)CC1CCCc2ccccc2C1=O (configuration not stated)
 : ·	3.8%	3.5%	·
- Clc1ccc(C(Cl)(Cl)Cl)c(Cl)c1
 : ·	-1.9%	-9.1%	·
- COc1cc(OC)c([C@H]2C=C(C)[C@H]3C[C@@H]2C3(C)C)c(OC)c1
 : ·	1.7%	-2.5%	·
- Cc1cccc(C)c1NC1=NCCCS1
 : -6.7&9.7&-1.1	0.3%	2.3%	-1.6%
- CC(=O)CCC(C)=O
 : ·	2.0%	-2.9%	·
- CCC(=NCc1ccco1)c1c(O)n(-c2ccc(C)cc2)c(=O)[nH]c1=O
 : 3.6	-3.1%	-5.1%	0.6%
- O=C(O)C(Cc1cnc[nH]1)NS(=O)(=O)c1ccc(Cl)cc1 (configuration not stated)
 : -1.8	-0.3%	-5.2%	-8.0%
- CN1C(=O)C(=Cc2ccc(N3CCOCC3)o2)C(=O)N(C)C1=S
 : 1.8	4.8%	-1.5%	-0.5%
- COC(=O)C1=C(c2ccc(F)cc2OCc2ccccc2)C[C@@H]2CC[C@H]1N2C(=O)NC1CC1
 : ·	-2.0%	?	·
- Cc1cc(N=Nc2ccccc2C)ccc1N
 : ·	-0.8%	?	·
- CC(=O)C1C2c3ccccc3O[C@@]1(C)N=c1s/c(=C/c3ccoc3)c(=O)n12 (some centres not stated)
 : -1.8	-0.1%	-12.1%	1.6%
- O=C(O)CCn1cc(C=C2C(=O)NC(=S)NC2=O)c(-c2ccccc2)n1
 : 2.7	-2.2%	-4.0%	5.4%
- CCN(CC)CC(O)c1ccc(C2CCCC2)cc1 (configuration not stated)
 : 0.2	7.8%	16.3%	-6.3%
- COc1ccc(CCNCc2ccc(SC)cc2)cc1
 : -0.1	0.2%	-10.4%	-7.5%
- CN1C(=O)CCC2(C)C1=CCC1C2CCC2(C)C1CCC2(C)O (configuration not stated)
 : ·	-0.7%	20.8%	·
- Cc1cc(/C=C2\C(=O)NC(=O)N(c3cccc(Br)c3)C2=O)c(C)n1C
 : -0.9	?	1.5%	-1.5%
- Cc1cc(C)nc(N2Cc3ccccc3C2=N)n1
 : -2.3	-1.0%	11.4%	20.3%
- CCCSP1(=S)NCCCO1 (configuration not stated)
 : -2.3	-0.5%	-3.6%	5.7%
- COC(=O)C1=C(c2c(C)noc2C)C[C@@H]2CC[C@H]1N2C(=O)NCCO
 : ·	?	29.8%	·
- Cc1cccc2c1N(N=O)CCC2
 : 2.6	4.0%	4.7%	-3.2%
- Cc1ccc(-c2nn(Cc3ccccc3)cc2C=O)cc1C
 : -4.5	2.7%	2.6%	-25.4%
- Cn1c(C(=O)O)c(CC(=O)N2CCN(Cc3ccccc3)CC2)c2ccccc21
 : -6.2	-2.8%	-16.5%	-8.0%

(list continues)
Each structure is followed by: GLA inh pH 4.5	Rango complex inh	Rango release inh	miR-21 reporter
- CN1CCN(CCC(C#N)(c2ccccc2)c2ccccc2)CC1
 : 2.1	2.7%	-0.4%	-6.5%
- COc1ccccc1OP(=O)(Nc1cccnc1)Oc1ccccc1OC
 : 1.8	1.0%	-15.5%	11.0%
- Cc1oc(-c2ccccc2)nc1CN1C(=O)C(C)N=C(c2ccccc2F)c2cc(Cl)ccc21 (configuration not stated)
 : 2.5	-0.5%	-1.2%	3.6%
- N#Cc1ccc(NC(=O)CCNC(=O)c2ccco2)cc1Cl
 : ·	-2.6%	-6.1%	-8.3%
- Cc1ccc(NC(=O)N2CC2)cc1NC(=O)N1CC1
 : ·	-3.9%	19.8%	·
- CCC(C(=O)N1C[C@H]2C[C@@H](C1)c1cccc(=O)n1C2)c1ccccc1 (some centres not stated)
 : ·	0.4%	14.6%	0.5%
- CN(C)C1(c2nnnn2CCOC(=O)Nc2ccc(Cl)cc2)CCCCC1
 : -10.6	-0.8%	-8.3%	20.8%
- O=c1cc(CN2CC=C(c3ccccc3)CC2)c2c(ccc3ccccc32)o1
 : -2.0	?	-24.9%	-5.6%
- CC(=NCC1CCCO1)c1c(O)n(-c2ccc(Cl)cc2)c(=O)[nH]c1=O (configuration not stated)
 : 3.6	-4.8%	6.2%	-3.7%
- COc1cc(/C=C/CO)cc(OC)c1O[C@@H]1O[C@H](CO)[C@@H](O)[C@H](O)[C@H]1O
 : -0.2	2.4%	36.9%	-11.3%
- CCOP(=O)(OCC)C(O)c1ccc(OC)cc1OC (configuration not stated)
 : -27.9	-1.9%	-1.8%	-2.2%
- CN1CCCC1c1ccc(=O)[nH]c1 (configuration not stated)
 : ·	-3.2%	8.3%	·
- CN1CCN(c2cc(N3CCNCC3)ccc2[N+](=O)[O-])CC1
 : 12.1	-0.4%	15.4%	-5.6%
- COc1ccc(C(CC(=O)N2CCC3(CC2)OCCO3)NS(=O)(=O)c2ccc(C)cc2)cc1 (configuration not stated)
 : -3.7	-1.7%	-10.3%	1.3%
- CC1=C2C(=O)C3C(CC=C4CC(O)CCC43C)C2CCC12OC1CC(C)CNC1C2C (configuration not stated)
 : ·	0.1%	-8.2%	0.0%
- CCOC(=O)CNC(=O)CNC(=O)C(Cc1ccc(N(CCCl)CCCl)cc1)NC(C)=O (configuration not stated)
 : -0.2	-0.1%	11.8%	-9.5%
- CC(=O)c1ccc(OC(=O)N(C)c2ccccc2)cc1
 : 4.4	-1.0%	-9.7%	-49.9%
- Cc1cccc(-n2c(O)c(C=NCCCN3CCOCC3)c(=O)[nH]c2=O)c1C
 : 2.7	-1.8%	-16.7%	-7.9%
- COc1ccc(OC)c(CN2CCCC(C(=O)c3sccc3C)C2)c1 (configuration not stated)
 : -10.5	0.3%	9.0%	9.1%
- O=C(CN1CCN(Cc2ccc(Cl)cc2)C1=O)N1CCC2(CC1)OCCO2
 : 3.7	2.0%	4.1%	-3.9%
- O=C(Cc1ccccc1)N1CCN(C2CCCC2)CC1
 : 2.5	-3.9%	2.0%	-1.5%
- CC(C)N1C(=O)CCC1C(=O)N1CCC2(CC1)OCCO2 (configuration not stated)
 : -1.9	-6.2%	-6.3%	-0.7%
- C[C@H]1[C@@H](OS(=O)(=O)O)C[C@@H]2C[C@H]([C@@H](O)c3cc(=O)[nH]c(=O)[nH]3)NC3=NC[C@H]1N32
 : ·	-4.2%	14.4%	·
- COc1ccc(/C=N/N=C(/N)N[N+](=O)[O-])c(OC)c1
 : -4.8	-2.8%	7.2%	-57.9%
- OC1(c2ccccc2F)CC2CCC(C1)N2CCN1CCOCC1 (configuration not stated)
 : 0.1	1.2%	-11.7%	-0.6%
- CCOc1ccc(N=C2SCCCN2C)cc1
 : -6.7	-2.3%	0.3%	-4.8%
- CC1=Nc2ccccc2/C1=C/c1c(O)n(C)c(=O)[nH]c1=O
 : ·	-1.7%	7.3%	3.2%
- O=C(O)C1(Br)CC12c1ccccc1-c1ccccc12 (configuration not stated)
 : ·	-2.1%	-7.4%	·
- CCN(c1ccc(C(O)(C(=O)OC)C(F)(F)F)cc1)S(=O)(=O)c1ccccc1 (configuration not stated)
 : -1.6	2.7%	4.1%	-1.6%
- C=CCn1c(O)c(C=Nc2c(C)n(C)n(-c3ccccc3)c2=O)c(=O)[nH]c1=O
 : -2.9	-0.5%	32.2%	0.5%
- COc1ccccc1CNC(=O)CCC(=O)N1C[C@H]2C[C@@H](C1)c1cccc(=O)n1C2
 : ·	-0.8%	11.6%	1.2%

Screens from PubChem BioAssay.

Only part of the results is shown; the hit share may differ from the screen's.
